Screening data as filed in PubChem BioAssay.
OX1R antag-1 – OX1R (HCRTR1) antagonists, primary screen, fluorescence, CHO/OX1R cells, Fluo-8 calcium, orexin A. actives 0.43% (n = 330,000). inhibition, % at 5 µM. Fluo-8 calcium fluorescence. Orexin/Hypocretin receptor type 1 (Homo sapiens), O43613. AID 434989, 2010;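 active = inhibition above its plate's threshold, mean inhibition of all tested compounds on the plate plus 3 SD, cut at about 37% in these data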;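 also: 0% = orexin A challenge wells and 100% = SB-334867-A antagonist wells; not every result past the cut was called active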
Target sequence (O43613 whole entry, looked up): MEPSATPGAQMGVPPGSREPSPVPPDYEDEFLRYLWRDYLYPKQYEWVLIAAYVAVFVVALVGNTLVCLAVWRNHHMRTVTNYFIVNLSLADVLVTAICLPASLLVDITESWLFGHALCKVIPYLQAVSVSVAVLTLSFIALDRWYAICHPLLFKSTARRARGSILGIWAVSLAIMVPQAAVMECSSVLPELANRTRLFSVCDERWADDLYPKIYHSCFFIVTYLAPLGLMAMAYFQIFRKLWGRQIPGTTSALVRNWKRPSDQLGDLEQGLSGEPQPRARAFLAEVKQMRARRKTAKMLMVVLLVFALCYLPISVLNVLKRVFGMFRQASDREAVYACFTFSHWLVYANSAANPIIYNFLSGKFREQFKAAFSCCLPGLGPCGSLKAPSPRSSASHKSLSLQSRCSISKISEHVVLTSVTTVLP
OX1R antag-2 – antagonists of human orexin 1 receptor (OX1R). Orexin/Hypocretin receptor type 1 (Homo sapiens), O43613. OX1R-expressing cells, FRET antagonist read-out. inhibition, % at 6.6 µM. actives 1.8% (n = 330,000). AID 485270, 2010; in the data active = inhibition mostly above about 38%, no sharp cut-off; inactive = mostly below about 40%;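 also: 0% = agonist challenge alone and 100% = reference antagonist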
* hit, by the source's call. The list is partial; most or all hits stand in other tables.

SMILES	OX1R antag-1	OX1R antag-2
CN(CCCNC(=O)C1CCCN(S(=O)(=O)c2cnc[nH]2)C1)c1ccccc1 (stereo not drawn)	3	16
CCOC(=O)c1[nH]c(C)c(C(=O)c2ccc(C)cc2)c1C	7	7
Cc1cccc(OCC(=O)N2CCC(N3CCCCCC3)CC2)c1	-8	9
O=c1[nH]c(Nc2ccccc2)cc2cc(Br)ccc12	-23	34
O=C1c2nc3cc(-c4ccco4)[nH]n3c(=O)c2CN1Cc1ccccc1	5	4
CC(=O)Nc1ccc(S(=O)(=O)c2c(N)n(CCN3CCOCC3)c3nc4ccccc4nc23)cc1	-1	21
O/N=C/c1cc(Br)ccc1OCc1ccccc1F	-19	44
Cc1sc2nc(CN(Cc3ccccc3)C(=O)NC3CCCCC3)[nH]c(=O)c2c1C	9	7
COc1ccc(CC(=O)O/N=C(\N)c2ccccn2)cc1	-6	-3
CCN(C(=O)CSc1nnnn1-c1ccccc1)C1CCS(=O)(=O)C1 (stereo not drawn)	-23	5
CCOC(=O)/C(=C\c1ccccc1)NC(=O)c1ccccc1	-13	6
CC(=O)N1CCN(c2ccc(S(=O)(=O)N3CCCCC3)cn2)CC1	-9	6
CCOC(=O)c1cc(C)sc1NC(=O)CSc1nccn1C	-22	24
Cc1cccc(-n2c(C)cc(/C=N/n3cnnc3)c2C)c1	-11	24
COc1ccc(C)cc1Nc1c2c(nc3ccccc13)CCC2	-21	9
CCOC(=O)c1ccc(NC(=O)CC2C(=O)N(c3ccccc3)C(=O)N2CCCOC)cc1 (stereo not drawn)	-23	14
COc1ccccc1N1CCN(CC(O)COc2ccc3c(C)cc(=O)oc3c2)CC1 (stereo not drawn)	-16	5
O=C(C1CCN(S(=O)(=O)N2CCOCC2)CC1)N1CCN(c2ccccc2)CC1	-14	14
Cc1cc(/C=C2\NC(=O)NC2=O)c(C)n1-c1ccc(N2CCOCC2)cc1	9	11
CCOC(=O)c1cnn(-c2ccccn2)c1N	-10	16
CC(C(=O)Nc1ccccc1-c1ccccc1)N1CCCCC1 (stereo not drawn)	-31	6
CC(=O)n1cc([C@@H]2C=C(C(=O)Nc3ccccc3)O[C@H](OCc3ccc(CO)cc3)C2)c2ccccc21	0	17
C=CCNC(=O)c1sc(=S)n(-c2ccc(C(=O)OCC)cc2)c1N	-6	23
CC1CCN(CC(=O)Nc2nc(-c3ccccc3)cs2)CC1	-26	13

By substructure, those above with an NH in an aromatic ring (5)
SMILES	OX1R antag-1	OX1R antag-2
CN(CCCNC(=O)C1CCCN(S(=O)(=O)c2cnc[nH]2)C1)c1ccccc1 (stereo not drawn)	3	16
CCOC(=O)c1[nH]c(C)c(C(=O)c2ccc(C)cc2)c1C	7	7
O=c1[nH]c(Nc2ccccc2)cc2cc(Br)ccc12	-23	34
O=C1c2nc3cc(-c4ccco4)[nH]n3c(=O)c2CN1Cc1ccccc1	5	4
Cc1sc2nc(CN(Cc3ccccc3)C(=O)NC3CCCCC3)[nH]c(=O)c2c1C	9	7

The listing continues.
SMILES	OX1R antag-1	OX1R antag-2
O=C(/C=C/c1ccc([N+](=O)[O-])cc1)NCCOc1ccc(F)cc1	-8	19
COc1ccccc1N(Cc1cc(=O)[nH]c2ccccc12)C(=O)C(C)C	-40	5
COc1ccc(Cc2nc3ccc(C(=O)N(C)CCn4ccnc4)cc3o2)cc1OC	-8	14
Cc1cccc(NCCC#N)c1	1	0
C/C=C/C(=O)Nc1nnc(-c2ccccc2C)s1	-11	6
O=C(NCC1CCCO1)c1cc(-c2ccccc2F)no1 (stereo not drawn)	-15	3
COc1ccc(CNC(=O)c2noc(C(C)C)c2[N+](=O)[O-])cc1	-15	29
COc1ccc(NC(=S)NNC(=O)c2nnn(-c3ccccc3)c2C)cc1	-9	15
CCc1ccc(N2CSC3=C(C#N)C(c4cccs4)CC(=O)N3C2)cc1 (stereo not drawn)	-11	13
CC(=O)C12C3C4C(C5C1C3C5(Br)C41OCCO1)C21OCCO1 (stereo not drawn)	0	2
Fc1ccccc1Cn1nnc2c(NCc3ccccn3)ncnc21	-14	3
C=CCN(C(=O)c1csnn1)C(C(=O)NCc1ccc(F)cc1)c1ccccc1F (stereo not drawn)	-24	28
CC(C)Oc1ccc(C(=O)CCN2CCOCC2)cc1	-21	-4
NC(=O)C1CCN(c2nc(-c3ccccc3)nc3ccccc23)CC1	-9	30
CNC(=O)c1snnc1-c1ccccc1	-4	9
CCOC(=O)N/N=C1\CCS(=O)(=O)c2ccc(Cl)cc21	-1	8
COc1cc(CN/C(C)=C(\C#N)C(N)=O)cc(OC)c1OC	14	8
CC(=O)Nc1ccc(NC(=O)COC(=O)CCc2nc3ccccc3s2)cc1	-11	20
COc1ccc(C2/C(=C(/O)c3ccccc3)C(=O)C(=O)N2CC(C)O)c(OC)c1 (stereo not drawn)	-10	16
CN(C)CCCN(C(=O)c1ccc(S(=O)(=O)N(C)C)cc1)c1nc2cc3c(cc2s1)OCO3	-7	-3
Cc1ncsc1C(=O)Nc1nc2c(s1)CCCC2	-6	-3
COc1cc(/C=N/NC(N)=S)ccc1OCc1ccc(C)cc1	-34	8
CS(=O)(=O)N1CCC(Oc2ccccc2C(=O)NC2CCCCCC2)CC1	-27	17
Nc1c(C(=O)NCCc2ccc(Cl)cc2)sc2ccc(S(=O)(=O)N3CCCCC3)cc12	-22	5
Cn1c(CNC(=O)c2ccccc2F)nnc1SCc1ccc(Cl)cc1	-31	0
COc1ccc(-n2nc(C(=O)NCC(=O)NCCCN3CCOCC3)c3ccccc3c2=O)cc1	-16	45
O=C(NCc1ccco1)/C(=C/c1ccccc1)NC(=O)c1ccco1	-6	3
Cn1cccc1C1CCCN1CC(=O)Nc1ccc(C(N)=O)cc1 (stereo not drawn)	1	-1
CCOc1ccccc1N1CN(C2CCCCC2)CNC1=S	-9	2
COc1ccc(/C=C\C(=O)NCc2ccc3c(c2)cc(C)n3C)cc1OC	-15	1
CC(C)(C)C(=O)C(Cc1ccccc1Cl)n1cncn1 (stereo not drawn)	-14	3
Cc1nc(N2CCC(C)CC2)c2c(C)c(C(=O)O)sc2n1	-10	25
O=c1[nH]c(CSc2ccccn2)nc2ccccc12	-6	6
O=C(c1cc(=O)[nH]c2ccccc12)N1CCN(c2cccc(C(F)(F)F)c2)CC1	-21	1
O=C(CCC1COc2ccccc2O1)NC1CCCCC1 (stereo not drawn)	-1	6
OC1(c2cccc(C(F)(F)F)c2)CCN(Cc2nnnn2Cc2ccccc2)CC1	-11	11

Part of the list above, with bars between the fields:
molecule | OX1R antag-1 | OX1R antag-2
Cn1c(CNC(=O)c2ccccc2F)nnc1SCc1ccc(Cl)cc1 | -31 | 0
OC1(c2cccc(C(F)(F)F)c2)CCN(Cc2nnnn2Cc2ccccc2)CC1 | -11 | 11

More records:
SMILES	OX1R antag-1	OX1R antag-2
N#CC(=Cc1ccc(O)cc1)C(N)=C(C#N)C#N	0	9
C#CCOCCOCCOCCNc1nc(N2CCN(C(=O)C([C@@H](C)CC)n3cc(C(N)COC(=O)C(F)(F)F)nn3)CC2)nc(N2CCN(C(=O)[C@H](Cc3ccc(O)cc3)n3cc(C(N)[C@H](C)CC)nn3)CC2)n1 (stereo partly drawn)	-10	6
CCN(CC)CCn1c(C)nc2c(sc3nc4c(cc32)COC(C)(C)C4)c1=O	-7	23
CCn1cc(C(=O)OCC(=O)NCc2ccccc2Cl)c(=O)c2ccc(C)nc21	-33	11
CCCCOc1ccc(NC(=O)CCSc2nccn2C)cc1	3	23
CCOc1ccc(NC(=O)c2cn(CC(C)C)c(=O)c3c2c2ccccc2n3C)cc1	-9	28
O=C(NC(Cc1ccc(O)cc1)C(=O)O)c1ccc2c(c1)OCO2 (stereo not drawn)	-15	2
O=C(NCC1CCCO1)C(C(=O)c1ccccc1)n1cc(Cl)ccc1=O (stereo not drawn)	-8	4
CC1=C(C(=O)OCc2ccccc2)N2C(=O)[C@@H](NC(=O)COc3ccccc3)[C@H]2SC1	-17	1
COC(=O)[C@H](CCSC)NC(=O)Nc1ccc(C(C)C)cc1	-22	1
N#CC1(NC(=O)CSc2nc3ccccc3s2)CCCCC1	-9	11
CCN(Cc1ccncc1)Cc1ccc(OC)c(OC)c1	-26	4
O=C(CSc1nc2c(c(C(F)(F)F)n1)CCc1ccccc1-2)NCc1ccc(F)cc1	-14	10
Cc1cc(C)n2nc(C(=O)OCC(=O)Nc3ccc4c(c3)OCO4)nc2n1	-24	8
Cc1ccc(-n2nc(C(N)=O)nc2-c2ccccc2)cc1	-19	0
O=C(NC(=S)Nc1cc([N+](=O)[O-])ccc1Cl)c1ccccc1	-21	14
COc1ccccc1CNC(=O)c1cccc(-c2ccc(C)c3ccccc23)n1	-41	25
CCn1nnnc1SCC(=O)c1ccc(C)cc1	-12	10
O=C(NC(=S)Nc1cccnc1Cl)c1ccc(Cl)cc1	-23	17
CCOC(=O)Cc1[nH]nc2c1C(Cc1ccccc1)C(C#N)=C(N)O2 (stereo not drawn)	-16	15
CC(=O)C1=C(O)C(=O)N(CCc2c[nH]c3ccccc23)C1c1ccccc1 (stereo not drawn)	2	10
O=C(/C=C/c1ccccc1)c1ccccc1O	-12	32
O=C1/C(=C/c2ccc(O)cc2)SC(=S)N1Cc1cccnc1	-7	14
O=C(c1c(O)c2ccccc2oc1=O)C1CCC1	-14	11
O=C(CN1C(=O)NC2(CCSC2)C1=O)NCc1ccccc1 (stereo not drawn)	2	3
COc1cccc(C(=O)NNC2=CC(=O)CC(C)(C)C2)c1	11	10
C/C(=N\NC(=O)c1ccccc1-n1cccc1)C1CC1	-20	19
CCOC(=O)c1c(CC(C)C)csc1/N=C/C1C(=O)CC(C)(C)CC1=O	-8	18
COc1ccc(S(=O)(=O)NCCSCc2ccco2)cc1C	-17	7
Cc1cc(O)c(C(C[N+](=O)[O-])c2ccc(Cl)cc2Cl)c(=O)o1 (stereo not drawn)	-19	14
COc1ccc(NC(C)=O)cc1NC(C)C(=O)Nc1ccc(F)cc1 (stereo not drawn)	-8	16
CCOC(=O)c1c(S(=O)(=O)NCC(=O)N2CCN(c3ccc(OC)cc3)CC2)c(C)n(C)c1C	-21	7
CCC1(CC)NC(=O)N(CC(=O)OCC(=O)Nc2ccc(C(F)(F)F)cc2)C1=O	-11	8
CCOC(=O)c1c(NC(=O)CNCC(O)CO)sc(C)c1C (stereo not drawn)	-15	19
C=CCOc1nc2c(c(=O)n(C)c(=O)n2C)n1Cc1ccccc1Cl	-21	8
CCCN(CCC)c1ccc(CC(=O)NC(C)Cc2ccccc2)cc1 (stereo not drawn)	-23	18

Overlap with the part before: 3 compounds, then new ones.
SMILES	OX1R antag-1	OX1R antag-2
CCOC(=O)c1c(NC(=O)CNCC(O)CO)sc(C)c1C (stereo not drawn)	-15	19
C=CCOc1nc2c(c(=O)n(C)c(=O)n2C)n1Cc1ccccc1Cl	-21	8
CCCN(CCC)c1ccc(CC(=O)NC(C)Cc2ccccc2)cc1 (stereo not drawn)	-23	18
O=C(NCC(=O)N(Cc1ccccc1)C(C(=O)NC1CCCC1)c1cccnc1)c1ccco1 (stereo not drawn)	-20	6
CCN(CC)Cc1c(C(=O)OC)nnn1-c1nonc1N	-13	11
CCn1c(CC(=O)Nc2ccc(F)cc2)nnc1SCC(=O)Nc1nncs1	-1	4
CC(C)(C)NCc1cccn1-c1sc2c(c1C#N)CCCC2	-16	14
O=C(NNS(=O)(=O)c1ccc2ccccc2c1)c1cccnc1	-11	22
C=CCc1ccccc1OCC(O)CN1CCN(CCO)CC1 (stereo not drawn)	-11	-4
COc1ccc(-c2nc(NC(=O)CSc3nnc4ccccn34)ns2)cc1	-33	29
CCC(=O)c1ccc(OCC(O)CN2CCN(S(=O)(=O)N3CCCCC3)CC2)cc1 (stereo not drawn)	-17	23
O=C(COc1cccnc1[N+](=O)[O-])N1CCN(C(=O)c2ccco2)CC1	-6	6
COC(=O)c1c(C(=O)OC)c2n(c1C)CCC2	-1	12
CC(=O)NC(NC(C)=O)c1cccc(OCc2ccccc2)c1	1	10
COc1ccccc1C(CNc1nc(C(F)(F)F)nc2ccccc12)N(C)C (stereo not drawn)	-33	18
N#CC1(N2CCN(C(=O)c3ccccc3)CC2)CCCCC1	4	10
COCCCn1c(SCC(=O)NC2CCS(=O)(=O)C2)nnc1-c1ccc(Cl)cc1 (stereo not drawn)	-13	4
Nc1nonc1C(=O)N/N=C/c1ccc(-c2ccc(Cl)c(C(=O)O)c2)o1	-2	80
CC(NC(=O)C(=O)NCCCn1ccnc1)c1ccccc1 (stereo not drawn)	-7	8
CCC(C)N(C(=O)COC(=O)c1cc([N+](=O)[O-])ccc1N)C1CCS(=O)(=O)C1 (stereo not drawn)	-1	43
CCCCN(CC)C(=O)C1CCCN(S(=O)(=O)c2cccc3nsnc23)C1 (stereo not drawn)	-26	40*
CCOC(=O)Cc1csc(NS(=O)(=O)c2ccc3c4c(cccc24)C(=O)N3CC)n1	-22	6
O=C(Cc1ccc(F)cc1)OCn1nnc2ccccc2c1=O	-1	10
Cc1ccc(OCC(=O)N(Cc2ccc(C)o2)C2CCS(=O)(=O)C2)cc1 (stereo not drawn)	-19	17
Cc1ccccc1NC(=O)CSC(N)=O	1	7
COc1ccccc1CN(C(=O)c1cnccn1)C(C(=O)NC1CCCCC1)c1cc(OC)c(OC)c(OC)c1 (stereo not drawn)	2	17
COc1cnc(-c2ccccc2)nc1Oc1ccccc1C	-29	26
CCCN1Cc2cccc(C(=O)Nc3ccc4c(c3)OCO4)c2C1=O	-32	20

Fetched by compound from above:
SMILES	OX1R antag-1	OX1R antag-2
O=C1c2nc3cc(-c4ccco4)[nH]n3c(=O)c2CN1Cc1ccccc1	5	4
COCCCn1c(SCC(=O)NC2CCS(=O)(=O)C2)nnc1-c1ccc(Cl)cc1 (stereo not drawn)	-13	4
COc1ccc(/C=C\C(=O)NCc2ccc3c(c2)cc(C)n3C)cc1OC	-15	1
N#CC(=Cc1ccc(O)cc1)C(N)=C(C#N)C#N	0	9
Cn1c(CNC(=O)c2ccccc2F)nnc1SCc1ccc(Cl)cc1	-31	0
